Vaccinia inh = blocks a specific stage of Vaccinia orthopoxvirus infection; Vaccinia-infected cells, mCherry/Venus stage reporter fluorescence; hits give low values; some inactives read as strong as hits; activity change (mCherry), % (no concentration beside the values); 89,000 compounds, 0.01% hits;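 active = mCherry past -33% and 40 or more points under the early reporter, replicates agreeing; inconclusive = past -33% without that gap or agreement; tested in A549 cells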;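 also: scaled between vehicle wells and reference inhibitor wells; 23 nL library stock went into each well; one replicate is shown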
Vaccinia inh Venus = recorded beside Vaccinia inh, whose call it bears; activity change (Venus), %; measured here: Venus reporter, other viral stage;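 negative = less Venus signal; first of two replicates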
* hit, by the source's call; ? = inconclusive; / = not tested or not shown. This is a subset. The share of hits here may be higher or lower than overall.

[1] C[C@H]1CN([C@@H](C)CO)C(=O)c2c(c3ccccc3n2C)-c2ccccc2CO[C@@H]1CN(C)CC1CC1
[2] CNC[C@H]1Oc2ccc(NC(=O)Nc3ccc(F)cc3)cc2CC(=O)N([C@@H](C)CO)C[C@@H]1C
[3] COCC#Cc1ccc2c(c1)O[C@@H](CN(C)Cc1ccccc1)[C@H](C)CN([C@H](C)CO)S2(=O)=O
[4] C[C@H]1CN([C@@H](C)CO)C(=O)Cc2cc(NC(=O)CCC(F)(F)F)ccc2O[C@@H]1CN(C)S(=O)(=O)c1ccccc1
[5] O=C(Nc1ccc2c(c1)OCO2)N[C@H]1CC[C@@H](CCNC(=O)C2CCC2)O[C@@H]1CO
[6] C[C@H](CO)N1C[C@H](C)[C@@H](CN(C)S(=O)(=O)c2cn(C)cn2)OCCCC[C@H](C)Oc2ccc(NS(=O)(=O)c3cccs3)cc2C1=O
[7] C[C@H]1CN([C@@H](C)CO)C(=O)c2cccc(NC(=O)Nc3ccc4c(c3)OCO4)c2O[C@H]1CN(C)Cc1ccncc1
[8] C[C@H]1CN([C@@H](C)CO)C(=O)c2cc(NC(=O)Cn3cnnn3)ccc2O[C@H]1CN(C)S(=O)(=O)c1cn(C)cn1
compound no. | 1 | 2 | 3 | 4 | 5 | 6 | 7 | 8
Vaccinia inh | -32 | 6 | -34 | -3 | -7 | 25 | -5 | 24
Vaccinia inh Venus | -37 | -5 | -29 | 1 | 7 | 10 | -2 | 30

[9] CO[C@H]1CN(C)C(=O)c2cc(NC(C)=O)ccc2OC[C@H](C)N(CC2CC2)C[C@H]1C
[10] Cc1noc(C)c1NC(=O)Nc1ccc2c(c1)C(=O)N([C@@H](C)CO)C[C@@H](C)[C@@H](CN(C)C(=O)Nc1c(C)noc1C)OCCCC[C@@H](C)O2
[11] C/C=C/c1ccc2c(c1)O[C@@H](CN(C)Cc1cccc(F)c1)[C@H](C)CN([C@@H](C)CO)S2(=O)=O
[12] C[C@@H]1CCCCO[C@H](CN(C)Cc2ccc(Cl)c(Cl)c2)[C@@H](C)CN([C@H](C)CO)C(=O)c2cc(NC(=O)c3ccncc3)ccc2O1
[13] CCCNC(=O)Nc1ccc2c(c1)C(=O)N(C)[C@@H]1CC[C@H](CC(=O)OC)O[C@H]1CO2
[14] CNC[C@@H]1Oc2ccc(NS(=O)(=O)c3c(C)noc3C)cc2C(=O)N([C@@H](C)CO)C[C@H]1C
[15] O=C(Nc1nccs1)[C@H]1[C@H](CO)[C@H]2Cn3c(ccc(-c4cccnc4)c3=O)[C@H]2N1CC1CC1
[16] COCC(=O)N(C)C[C@@H]1Oc2ncc(C3=CCCC3)cc2C(=O)N([C@@H](C)CO)C[C@H]1C
compound no. | 9 | 10 | 11 | 12 | 13 | 14 | 15 | 16
Vaccinia inh | 9 | 21 | ? | -18 | 4 | 27 | 2 | 3
Vaccinia inh Venus | 7 | 13 | / | -9 | 9 | 8 | -3 | 4

[17] C[C@H](CO)N1C[C@H](C)[C@H](CN(C)C(=O)C2CCCCC2)OCCCC[C@H](C)Oc2ccc(NC(=O)c3ccccc3)cc2C1=O
[18] CCC(=O)Nc1ccc2c(c1)C(=O)N(C)C[C@H](OC)[C@@H](C)CN(C(=O)c1cnccn1)[C@H](C)CO2
[19] CN1CCCCN2[C@@H](CO)[C@H](c3ccc(-c4ccccc4)cc3)[C@@H]2C1
[20] C[C@H]1CN([C@@H](C)CO)C(=O)c2cccc(NC(=O)C3CCCCC3)c2O[C@H]1CN(C)C
[21] C[C@H]1CN([C@@H](C)CO)C(=O)Cc2cc(NS(=O)(=O)c3cn(C)cn3)ccc2O[C@H]1CN(C)S(=O)(=O)c1ccc(F)cc1
[22] C[C@H](CO)N1C[C@H](C)[C@H](CN(C)C(=O)Nc2ccccc2)Oc2c(NS(=O)(=O)c3ccc(Cl)cc3)cccc2C1=O
[23] CC(C)(O)C#Cc1ccc([C@@H]2[C@@H](CO)N3CCCCN(Cc4ccccc4F)C[C@@H]23)cc1
[24] CC(C)C#Cc1cnc2c(c1)C(=O)N([C@@H](C)CO)C[C@H](C)[C@H](CN(C)C(=O)Cc1ccncc1)O2
compound no. | 17 | 18 | 19 | 20 | 21 | 22 | 23 | 24
Vaccinia inh | -15 | 13 | -4 | -1 | 8 | -9 | -9 | -5
Vaccinia inh Venus | -21 | 4 | -5 | 4 | 9 | -6 | -13 | 2

[25] Cc1ccc(S(=O)(=O)N(C)C[C@H]2Oc3cc(C4=CCCC4)ccc3S(=O)(=O)N([C@H](C)CO)C[C@H]2C)cc1
[26] C[C@H]1CN([C@@H](C)CO)C(=O)Cc2cc(NC(=O)Cc3cn(C)c4ccccc34)ccc2O[C@@H]1CN(C)Cc1ccc(C(F)(F)F)cc1
[27] COc1ccc(CN(C)C[C@@H]2Oc3c(NC(=O)c4ccc(-c5nccs5)cc4)cccc3C(=O)N([C@H](C)CO)C[C@@H]2C)cc1
[28] CCCc1cn(CC[C@H]2CC[C@@H](NC(=O)C3CCCCC3)[C@@H](CO)O2)nn1
[29] N#C[C@H]1[C@H](c2ccc(C#CC3CCCCC3)cc2)[C@@H](CO)N1C(=O)Cc1ccccn1
[30] O=C(C[C@@H]1CC[C@H](NC(=O)Nc2ccc(F)cc2)[C@@H](CO)O1)NCc1cccc(F)c1
[31] COc1ccc(S(=O)(=O)Nc2ccc3c(c2)C(=O)N([C@@H](C)CO)C[C@H](C)[C@H](CN(C)C(=O)c2ccccc2)OCCCC[C@H](C)O3)cc1
[32] C[C@@H]1CN([C@@H](C)CO)C(=O)c2cc(NC(=O)Nc3cccc4ccccc34)ccc2O[C@@H]1CN(C)Cc1ccncc1
compound no. | 25 | 26 | 27 | 28 | 29 | 30 | 31 | 32
Vaccinia inh | -26 | -18 | -17 | -8 | -29 | 6 | ? | -12
Vaccinia inh Venus | -12 | -12 | -8 | -10 | -15 | 4 | / | -11

[33] COCC(=O)Nc1ccc2c(c1)[C@@H]1C[C@H](CC(=O)NC3CCCC3)O[C@@H](CO)[C@@H]1O2
[34] C[C@H]1CN([C@@H](C)CO)C(=O)CCCn2nncc2CO[C@@H]1CN(C)Cc1ccc(C(F)(F)F)cc1
[35] C[C@H](CO)N1C[C@H](C)[C@H](CN(C)C(=O)Nc2ccccc2F)Oc2cc(-c3ccc(C(=O)N(C)C)cc3)ccc2S1(=O)=O
[36] CCCNC(=O)N1[C@H](C#N)[C@H](c2ccc(-c3cccc(OC)c3)cc2)[C@H]1CO
[37] C[C@@H]1CCCCO[C@H](CN(C)S(=O)(=O)c2ccccc2)[C@H](C)CN([C@@H](C)CO)C(=O)c2cc(NC(=O)CCC(F)(F)F)ccc2O1
[38] C[C@H]1CN([C@@H](C)CO)C(=O)Cc2cc(NC(=O)CCCCCC(=O)Nc3ccccc3N)ccc2O[C@H]1CN(C)CC1CC1
[39] CCCNC(=O)[C@H]1N[C@H]2c3ccc(-c4cccc(F)c4)c(=O)n3C[C@H]2[C@@H]1CO
[40] COc1ccccc1-c1ccc([C@@H]2[C@@H](CO)N3CCCCN(C(=O)c4ccncc4)C[C@H]23)cc1
compound no. | 33 | 34 | 35 | 36 | 37 | 38 | 39 | 40
Vaccinia inh | 10 | 5 | 5 | -16 | 2 | 11 | 11 | -3
Vaccinia inh Venus | 11 | -1 | 5 | -12 | -3 | 1 | 5 | -2

[41] CNC[C@H]1OCCCC[C@H](C)Oc2ccc(NS(=O)(=O)c3ccc(F)cc3)cc2C(=O)N([C@@H](C)CO)C[C@H]1C
[42] Cc1ccc(S(=O)(=O)N(C)C[C@@H]2OCCCC[C@@H](C)Oc3ccc(NS(=O)(=O)c4ccc(Cl)cc4)cc3C(=O)N([C@@H](C)CO)C[C@@H]2C)cc1
[43] Cc1ccc(S(=O)(=O)Nc2ccc3c(c2)C(=O)N([C@H](C)CO)C[C@H](C)[C@@H](CN(C)S(=O)(=O)c2cn(C)cn2)OCCCC[C@H](C)O3)cc1
[44] O=S(=O)(N[C@H]1CC[C@@H](CCn2cc(-c3ccccc3F)nn2)O[C@H]1CO)c1ccc(Cl)cc1
[45] O=C(O)C[C@H]1CC[C@@H](NC(=O)CCN2CCCCC2)[C@@H](CO)O1
[46] C[C@H]1CN([C@@H](C)CO)C(=O)c2cc(C#Cc3ccccc3F)cnc2O[C@H]1CN(C)C(=O)C1CCOCC1
[47] O=C(Cc1cccnc1)N1CCCCN2[C@H](CO)[C@@H](c3ccc(C#CC4(O)CCCC4)cc3)[C@H]2C1
[48] C[C@H]1CN([C@@H](C)CO)S(=O)(=O)c2ccc(C#CCN(C)C)cc2O[C@H]1CN(C)Cc1ccccc1
compound no. | 41 | 42 | 43 | 44 | 45 | 46 | 47 | 48
Vaccinia inh | 11 | -21 | 3 | ? | 13 | 2 | 26 | 4
Vaccinia inh Venus | 11 | -21 | 10 | / | 11 | -2 | 18 | -3

[49] CN1[C@@H]2c3ccc(-c4cccnc4)c(=O)n3C[C@@H]2[C@@H](CO)[C@@H]1C(=O)NCC1CCCCC1
[50] COc1cccc(S(=O)(=O)N[C@H]2CC[C@@H](CC(=O)NCc3ccccc3)O[C@@H]2CO)c1
[51] Cc1ccc(S(=O)(=O)NCC[C@H]2CC[C@@H](NC(=O)C3CCOCC3)[C@@H](CO)O2)cc1
[52] COc1ccc(S(=O)(=O)N(C)C[C@@H]2Oc3ccc(NC(=O)Nc4ccc(C(F)(F)F)cc4)cc3C(=O)N([C@H](C)CO)C[C@H]2C)cc1
[53] C[C@@H]1CN([C@H](C)CO)S(=O)(=O)c2ccc(C#CC3CC3)cc2O[C@H]1CN(C)C(=O)CC1CC1
[54] CC(C)NC(=O)N(C)C[C@H]1Oc2ncc(C#CC3CCCC3)cc2C(=O)N([C@@H](C)CO)C[C@@H]1C
[55] C[C@@H]1CN([C@H](C)CO)C(=O)c2cc(NC(=O)C3CCCCC3)ccc2O[C@@H]1CN(C)Cc1ccc(C(=O)Nc2ccccc2N)cc1
[56] COc1ccc(NC(=O)N(C)C[C@@H]2Oc3c(NS(=O)(=O)c4cccs4)cccc3C(=O)N([C@@H](C)CO)C[C@@H]2C)cc1
compound no. | 49 | 50 | 51 | 52 | 53 | 54 | 55 | 56
Vaccinia inh | -6 | 2 | 5 | -28 | -4 | 11 | -10 | 12
Vaccinia inh Venus | -2 | -5 | 9 | -17 | -10 | 5 | -8 | 13

[57] C[C@H](CO)N1C[C@H](C)[C@@H](CN(C)C(=O)C2CCCCC2)Oc2ncc(-c3ccncc3)cc2C1=O
[58] CC(C)NC(=O)Nc1ccc2c(c1)C(=O)N(C)[C@@H]1CC[C@H](CC(=O)NCC3CCCCC3)O[C@H]1CO2
[59] COc1ccccc1-c1ccc([C@H]2[C@@H](CO)N3CCCCN(S(=O)(=O)c4cn(C)cn4)C[C@@H]23)cc1
[60] O=C(C[C@H]1C[C@H]2c3cc(NS(=O)(=O)c4ccc(F)cc4)ccc3O[C@H]2[C@H](CO)O1)NCc1ccc(-c2ccccc2)cc1
[61] Cc1noc(C)c1NC(=O)Nc1ccc2c(c1)C(=O)N([C@@H](C)CO)C[C@@H](C)[C@@H](CN(C)S(C)(=O)=O)OCCCC[C@@H](C)O2
[62] COc1ccc2c3c([nH]c2c1)[C@@H](CO)N(C(=O)C1CC1)CC31CN(S(C)(=O)=O)C1
[63] C[C@@H]1CN([C@@H](C)CO)C(=O)c2cc(N(C)C)ccc2O[C@@H]1CN(C)C(=O)NC1CCCCC1
[64] COc1ccc(CN(C)C[C@H]2Oc3c(NS(=O)(=O)c4ccc(OC)cc4)cccc3C(=O)N([C@H](C)CO)C[C@@H]2C)cc1
compound no. | 57 | 58 | 59 | 60 | 61 | 62 | 63 | 64
Vaccinia inh | 17 | -7 | 6 | ? | 11 | 24 | 18 | 17
Vaccinia inh Venus | 1 | 0 | -16 | / | 10 | 21 | 11 | 14

[65] C[C@H]1CN([C@@H](C)CO)C(=O)c2cc(NS(=O)(=O)c3ccc(F)cc3)ccc2O[C@@H]1CN(C)Cc1ccc(C(=O)O)cc1
[66] COc1ccc(S(=O)(=O)Nc2ccc3c(c2)CC(=O)N([C@H](C)CO)C[C@H](C)[C@H](CN(C)C)O3)cc1
[67] C[C@H]1CN([C@@H](C)CO)C(=O)c2cccc(NC(=O)Nc3ccc(F)cc3)c2O[C@H]1CN(C)S(=O)(=O)c1ccc(Cl)cc1
[68] CN1c2ccc(C3=CCCCC3)cc2[C@@H]2[C@@H](CCN2S(=O)(=O)c2ccccc2)[C@@H]1CO
[69] C[C@H]1CN([C@@H](C)CO)C(=O)c2cc(NC(=O)CCCCCC(=O)Nc3ccccc3N)ccc2O[C@H]1CN(C)C(=O)Nc1ccc(F)cc1
[70] O=C(NC1CCCC1)[C@@H]1[C@@H](CO)[C@@H]2Cn3c(cccc3=O)[C@H]1N2C(=O)CC1CC1
[71] CN1C(=O)c2cc(NC(=O)C3CCCC3)ccc2OC[C@H]2O[C@H](CC(=O)O)CC[C@H]21
[72] N#Cc1cccc(-c2ccc([C@H]3[C@@H](CO)N4CCCCN(C(=O)Nc5ccccc5)C[C@H]34)cc2)c1
[73] COc1ccc(NC(=O)Nc2ccc3c(c2)CC(=O)N([C@@H](C)CO)C[C@H](C)[C@H](CN(C)C(=O)NC(C)C)O3)cc1
[74] C[C@H](CO)N1C[C@H](C)[C@H](CN(C)C(=O)Nc2cccc3ccccc23)Oc2ncc(C#Cc3cccc(F)c3)cc2C1=O
compound no. | 65 | 66 | 67 | 68 | 69 | 70 | 71 | 72 | 73 | 74
Vaccinia inh | 20 | 15 | ? | -9 | 10 | 5 | 7 | -34 | 7 | ?
Vaccinia inh Venus | 11 | 7 | / | -12 | 1 | 2 | 17 | -34 | 6 | /

Compound profiles (already shown). Order of screens: Vaccinia inh, Vaccinia inh Venus
`C[C@@H]1CN([C@@H](C)CO)C(=O)c2cc(NC(=O)Nc3cccc4ccccc34)ccc2O[C@@H]1CN(C)Cc1ccncc1` is entered as -12, -11
`O=C(Nc1ccc2c(c1)OCO2)N[C@H]1CC[C@@H](CCNC(=O)C2CCC2)O[C@@H]1CO` is entered as -7, 7
`COc1ccc2c3c([nH]c2c1)[C@@H](CO)N(C(=O)C1CC1)CC31CN(S(C)(=O)=O)C1` is entered as 24, 21
`O=C(Nc1nccs1)[C@H]1[C@H](CO)[C@H]2Cn3c(ccc(-c4cccnc4)c3=O)[C@H]2N1CC1CC1` is entered as 2, -3

Bioassay records (PubChem)
